High-throughput results as filed in PubChem.
MLL AF4-AF9 inh – inhibitors of AF4 peptide binding to AF9, primary screen, biochemical, AlphaScreen, biotin-AF4 peptide, FLAG-AF9, single point | Protein AF-9 (Homo sapiens), P42568 | inhibition, % at 10 µM | 0.47% of 350,000 active;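 active means every replicate reaching a set inhibition limit, whatever the replicate mean, cut at about 25% in these data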;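 further: 0% = plate neutral control median and 100% = total signal loss; the record names both 10 and 1 µM as test concentration; the first replicate is given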
Target sequence (P42568 whole entry, looked up): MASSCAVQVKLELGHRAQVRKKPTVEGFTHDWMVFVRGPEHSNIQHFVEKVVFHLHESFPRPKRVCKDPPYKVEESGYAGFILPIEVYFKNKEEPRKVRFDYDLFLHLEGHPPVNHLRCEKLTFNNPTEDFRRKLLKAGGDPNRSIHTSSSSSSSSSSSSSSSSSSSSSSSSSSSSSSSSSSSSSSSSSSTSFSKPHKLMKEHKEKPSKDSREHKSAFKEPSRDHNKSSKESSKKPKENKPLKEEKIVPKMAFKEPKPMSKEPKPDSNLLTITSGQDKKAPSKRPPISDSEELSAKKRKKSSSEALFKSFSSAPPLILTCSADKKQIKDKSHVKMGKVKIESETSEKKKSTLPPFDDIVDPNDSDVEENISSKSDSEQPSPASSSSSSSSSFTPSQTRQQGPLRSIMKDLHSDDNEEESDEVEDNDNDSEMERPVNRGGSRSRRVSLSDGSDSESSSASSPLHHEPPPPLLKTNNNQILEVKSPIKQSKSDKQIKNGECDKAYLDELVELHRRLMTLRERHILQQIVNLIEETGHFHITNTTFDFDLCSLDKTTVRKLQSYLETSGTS
* marks the source's active call; other numbers are inactive results; & = joins results of further samples. The list is partial; rates above refer to the full screens.

molecule	MLL AF4-AF9 inh
COC(=O)c1cc2c(c3c4ccccc4n(S(=O)(=O)c4ccc(OC)cc4)c13)C(=O)N(Cc1ccc(N(C)C)cc1)C2	-7.1
O=C(Nc1ccccc1F)N1CC(=O)N2[C@H](CO)[C@@H](c3ccc(-c4cccnc4)cc3)[C@@H]2C1	-10.6
Cc1cc2nc(C3CCCCC3)c(Cc3ccccc3C(F)(F)F)n2c(C)c1Br	-2.7
COCC#Cc1ccc2c(c1)O[C@H](CN(C)S(=O)(=O)c1cccc(F)c1)[C@@H](C)CN([C@@H](C)CO)S2(=O)=O	1.4
c1ccc(CNc2nc(Oc3ccncc3)c3sccc3n2)cc1	0.3
CCCN1C[C@H](C)[C@H](OC)CN(C)C(=O)c2ccc(NC(=O)c3ccccc3)cc2OC[C@H]1C	-1.6
COc1ccc(CC(N)c2csc(Nc3nccc(C(F)(F)F)n3)n2)cc1 (stereo not given)	11.3
C[C@@H]1CCCCO[C@@H](CN(C)C(=O)C2CCCCC2)[C@@H](C)CN([C@H](C)CO)C(=O)c2cc(NS(=O)(=O)c3ccc(Cl)cc3)ccc2O1	4.5
CCCNC(=O)N1C[C@@H]2[C@H](c3ccccc31)[C@@H](CO)N2CC1CCCCC1	-1.1
O=C(C[C@@H]1C[C@@H]2c3cc(NC(=O)NC4CCCC4)ccc3O[C@@H]2[C@@H](CO)O1)NCCN1CCCCC1	3.3
CN1c2ccc(Br)cc2[C@H]2[C@H](CCN2C(=O)Cc2cccnc2)[C@H]1CO	-6.6
N#Cc1cccc(-c2ccc(C3[C@@H]4CN(Cc5cocn5)C[C@H]3N4)cc2)c1 (stereo not given in full)	16.0
CO[C@H]1CN(C)C(=O)c2cc(NC(=O)C3CCCC3)ccc2OC[C@@H](C)N(CCC(F)(F)F)C[C@@H]1C	0.3
Cc1ccc(S(=O)(=O)Nc2ccc3c(c2)CC(=O)N([C@H](C)CO)C[C@H](C)[C@H](CN(C)Cc2ccc(Oc4ccccc4)cc2)O3)cc1	-10.5
C[C@@H]1CN([C@H](C)CO)S(=O)(=O)c2ccc(-c3cccnc3)cc2O[C@H]1CN(C)Cc1ccccn1	12.5
CC(C)CC#Cc1ccc2c(c1)O[C@@H](CN(C)Cc1ccncc1)[C@@H](C)CN([C@H](C)CO)S2(=O)=O	2.7
COC(=O)C[C@@H]1CC[C@@H]2[C@H](COC[C@@H](O)CN2C(=O)Nc2cccc(F)c2)O1	-1.6
Cc1noc(C)c1NC(=O)Nc1ccc2c(c1)C(=O)N([C@H](C)CO)C[C@@H](C)[C@@H](CN(C)S(C)(=O)=O)O2	0.6
CCOC(=O)C1CCCN(C(=O)c2cc(C)n(C(C)(C)C)n2)CC1 (stereo not given)	1.6
CCN(c1ccccc1)S(=O)(=O)c1cc(C(=O)NCc2ccco2)ccc1C	1.6
O=C(NCc1ccccc1)C1C(=O)Nc2ccccc2C(=O)N1c1ccc2c(c1)OCCO2 (stereo not given)	0.9
CC(=O)N(C)C[C@@H]1Oc2cc(-c3ccccc3F)ccc2S(=O)(=O)N([C@@H](C)CO)C[C@@H]1C	-2.4
CC(=O)N1CCCCN2[C@@H](CO)[C@@H](c3ccc(C#Cc4ccccc4F)cc3)[C@@H]2C1	-4.2
COc1cccc(CNC(=O)c2cccc(S(=O)(=O)N3CCN(Cc4ccccc4)CC3)c2)c1	-18.1
COc1ccccc1NC(=O)N[C@@H]1CC[C@H](CC(=O)N2CCC(Cc3ccccc3)CC2)O[C@@H]1CO	1.8
CC(C)c1cn(CC[C@@H]2CC[C@@H](NC(=O)c3cccc(F)c3)[C@@H](CO)O2)nn1	-0.2
CCC(=O)N(C)C[C@@H]1Oc2cc(-c3ccc(C#N)cc3)ccc2S(=O)(=O)N([C@@H](C)CO)C[C@H]1C	-1.4
C[C@@H]1CN([C@@H](C)CO)S(=O)(=O)c2ccc(C#C[C@@H](C)O)cc2O[C@@H]1CN(C)C(=O)CC1CC1	-1.4
C[C@H]1CN([C@@H](C)CO)S(=O)(=O)c2ccc(-c3ccc(F)cc3)cc2O[C@H]1CN(C)Cc1ccccc1C(=O)O	4.9
CCCN1[C@@H]2c3ccc(C4=CCCCC4)c(=O)n3C[C@H]1[C@H](CO)[C@H]2C(=O)NCC	-1.3
Cc1noc(C)c1S(=O)(=O)N(C)C[C@H]1Oc2ccc(NS(=O)(=O)c3ccc(Cl)cc3)cc2CC(=O)N([C@@H](C)CO)C[C@H]1C	1.7
C[C@H](CO)N1C[C@H](C)[C@H](CN(C)Cc2ccc(C(F)(F)F)cc2)Oc2ccc(NC(=O)NC3CCCCC3)cc2C1=O	-2.0
C[C@H]1CN([C@@H](C)CO)C(=O)c2cc(NC(=O)c3ccncc3)ccc2O[C@@H]1CN(C)S(=O)(=O)c1cn(C)cn1	-3.4
CO[C@H]1CN(C)C(=O)c2cc(NC(C)=O)ccc2OC[C@H](C)N(Cc2nccs2)C[C@H]1C	-6.4
COc1ccc(NS(=O)(=O)c2cc(NC(=O)CCc3ccccc3)ccc2N2CCOCC2)cc1	-1.3
O=C(NCCN1CCCCC1)[C@@H]1N[C@@H]2c3ccc(-c4ccncc4)c(=O)n3C[C@@H]2[C@H]1CO	3.3
CN(C)CC(=O)N[C@H]1CC[C@H](CCNC(=O)Nc2ccc(Cl)cc2)O[C@H]1CO	6.3
CCCN(C)C[C@H]1Oc2cc(C#Cc3cccc(F)c3)ccc2S(=O)(=O)N([C@@H](C)CO)C[C@H]1C	4.6
O=C(NCC[C@H]1CC[C@H](NS(=O)(=O)c2cccc(F)c2)[C@@H](CO)O1)C1CCC1	0.5
CS(=O)(=O)Nc1ccc2c(c1)[C@H]1C[C@@H](CC(=O)NC3CCCCC3)O[C@H](CO)[C@H]1O2	0.2
C[C@H]1CN([C@@H](C)CO)C(=O)c2cccc(NC(=O)CCCCCC(=O)Nc3ccccc3N)c2O[C@H]1CN(C)S(=O)(=O)c1ccccc1	-1.2
C[C@@H]1CN([C@@H](C)CO)C(=O)c2cc(-c3cccc(F)c3)cnc2O[C@@H]1CN(C)C(=O)C1CCCCC1	-4.0
CNC[C@H]1Oc2ccc(NC(=O)Nc3ccc(F)cc3)cc2CC(=O)N([C@H](C)CO)C[C@@H]1C	0.0
C[C@H](CO)N1C[C@H](C)[C@@H](CN(C)CC2CCCCC2)OCCCC[C@H](C)Oc2ccc(NC(=O)c3ccccc3)cc2C1=O	1.2
NC(c1ccccc1)c1csc(Nc2ccccn2)n1 (stereo not given)	6.4
COc1ccc2c3c([nH]c2c1)[C@@H](CO)N(C(=O)Nc1ccc(F)cc1)CC31CN(C(=O)Nc2ccc3c(c2)OCO3)C1	1.9
C[C@@H]1CCn2cc(nn2)COC[C@@H](Cc2ccccc2)NC1=O	-6.0
COc1ccc(NC(=O)Nc2cccc3c2O[C@@H](CN(C)Cc2ccncc2)[C@H](C)CN([C@H](C)CO)C3=O)cc1	0.6
Cc1ccccc1S(=O)(=O)N1CC[C@@H]2[C@@H](CO)Nc3ccc(-c4ccccc4F)cc3[C@@H]21	3.6
CCCC(=O)Nc1ccc2c(c1)C(=O)N(C)[C@H]1CC[C@H](CC(=O)NCCc3ccccc3)O[C@@H]1CO2	0.1
CCCNC(=O)N[C@H]1C=C[C@H](CC(=O)N2CCN(C)CC2)O[C@@H]1CO	-1.2
O=C(O)[C@H]1[C@H](CO)[C@H]2Cn3c(ccc(-c4ccccc4)c3=O)[C@H]2N1Cc1ccccc1F	1.5
C[C@@H]1CN([C@H](C)CO)S(=O)(=O)c2ccc(C#Cc3ccccn3)cc2O[C@@H]1CN(C)Cc1ccc(F)cc1	1.4
Cc1noc(C)c1NC(=O)Nc1ccc2c(c1)C(=O)N([C@@H](C)CO)C[C@@H](C)[C@@H](CN(C)S(=O)(=O)c1cccs1)OCCCC[C@H](C)O2	-2.9
C[C@H]1CN([C@@H](C)CO)C(=O)c2cc(-c3ccccc3)cnc2O[C@H]1CN(C)C(=O)Cc1ccccc1	-6.3
CCOC(=O)CCCCCC(=O)Nc1ccc2c(c1)C(=O)N([C@@H](C)CO)C[C@@H](C)[C@H](CN(C)S(=O)(=O)c1cccs1)OCCCC[C@H](C)O2	0.2
CN1[C@H](C(=O)N2CCc3ccccc3C2)[C@@H](CO)[C@@H]2Cn3c(ccc(-c4ccccc4)c3=O)[C@@H]21	-12.8
COc1ccccc1CNC(=O)C[C@H]1C[C@H]2c3cc(NS(C)(=O)=O)ccc3O[C@H]2[C@@H](CO)O1	-1.9
COc1ccc(S(=O)(=O)Nc2ccc3c(c2)C(=O)N([C@H](C)CO)C[C@@H](C)[C@@H](CN(C)Cc2ccc(C(F)(F)F)cc2)OCCCC[C@H](C)O3)cc1	1.0
COc1ccc(C(C)(O)c2nc(-c3cccc(F)c3)cs2)cc1 (stereo not given)	-3.6

The listing continues.
molecule	MLL AF4-AF9 inh
C[C@H]1CN([C@@H](C)CO)C(=O)c2cccc(NC(=O)CCCCCC(=O)Nc3ccccc3N)c2O[C@H]1CN(C)C(=O)Nc1ccc(C(F)(F)F)cc1	0.0
CCNC(=O)C[C@@H]1CC[C@@H]2[C@H](COc3ccc(NC(=O)C4CCOCC4)cc3C(=O)N2C)O1	-3.7
C[C@H]1CN([C@@H](C)CO)S(=O)(=O)c2ccc(C#Cc3ccc(F)cc3)cc2O[C@H]1CN(C)S(=O)(=O)c1ccc(F)cc1	-2.5
Cc1ccccc1S(=O)(=O)NCC[C@@H]1CC[C@H](NC(=O)Nc2cccc(F)c2)[C@H](CO)O1	0.1
COc1cccc(Cn2cnc(-c3ccccc3OC)c2-c2ccco2)c1	3.7
COCC(=O)N1C[C@@H](C)[C@H](OC)CN(C)C(=O)c2cc(NC(=O)C3CCC3)ccc2OC[C@H]1C	-0.2
COc1cccc(NC(=O)N(C)C[C@H]2Oc3cc(-c4cccc(C(=O)N(C)C)c4)ccc3S(=O)(=O)N([C@H](C)CO)C[C@H]2C)c1	0.1
O=C(NCC[C@@H]1CC[C@@H](NS(=O)(=O)Cc2ccccc2)[C@H](CO)O1)C1CC1	0.0
C[C@H](CO)N1C[C@H](C)[C@H](CN(C)S(=O)(=O)c2ccc(-c3ccccc3)cc2)OCc2cn(nn2)CCCC1=O	2.0
Cc1noc(C)c1NC(=O)Nc1ccc2c(c1)C(=O)N([C@H](C)CO)C[C@@H](C)[C@H](CN(C)S(=O)(=O)c1cn(C)cn1)O2	-2.9
O=S1(=O)CC(N2CCCCC2)CN1Cc1cn(Cc2ccc(Cl)cc2)nn1 (stereo not given)	-0.5
O=C(N[C@@H]1C[C@@H]2O[C@@H](CO)CC[C@@H]2O[C@@H]1CCc1ccc(-c2cccnc2)cc1)c1cccc(F)c1	1.6
COc1cccc(NC(=O)N[C@H]2C=C[C@@H](CC(=O)Nc3ccccc3)O[C@@H]2CO)c1	0.7
C[C@@H]1CN([C@@H](C)CO)C(=O)c2cccc(NC(=O)c3ccncc3)c2O[C@@H]1CN(C)CC1CCCCC1	0.0
Cc1noc(C)c1NC(=O)N(C)C[C@H]1Oc2ncc(C#CC3CCCCC3)cc2C(=O)N([C@H](C)CO)C[C@H]1C	-1.0
Cc1ccc(S(=O)(=O)N(C)C[C@H]2Oc3c(NC(=O)CCCCCC(=O)Nc4ccccc4N)cccc3C(=O)N([C@@H](C)CO)C[C@@H]2C)cc1	0.3
O=C(C[C@@H]1CC[C@H]2[C@@H](COC[C@@H](O)CN2C(=O)c2ccccc2F)O1)N1CCN(c2ccccc2)CC1	0.9
C[C@H]1CCCCO[C@@H](CN(C)C(=O)NC2CCCCC2)[C@@H](C)CN([C@@H](C)CO)C(=O)c2cc(NC(=O)CCC(F)(F)F)ccc2O1	0.6
C[C@H]1CN([C@@H](C)CO)C(=O)Cc2cc(NS(=O)(=O)c3cn(C)cn3)ccc2O[C@@H]1CN(C)Cc1ccc(Oc2ccccc2)cc1	4.1
C[C@@H]1CN([C@@H](C)CO)C(=O)Cc2cc(NS(C)(=O)=O)ccc2O[C@H]1CN(C)Cc1ccccc1	-0.6
COc1ccc(NC(=O)N(C)C[C@@H]2Oc3c(NS(=O)(=O)c4cn(C)cn4)cccc3C(=O)N([C@@H](C)CO)C[C@H]2C)cc1	-2.8
CCCN(C)C[C@@H]1OCCCC[C@@H](C)Oc2ccc(NS(=O)(=O)c3ccccc3)cc2C(=O)N([C@@H](C)CO)C[C@@H]1C	-0.2
COc1ccc(S(=O)(=O)Nc2ccc3c(c2)CC(=O)N([C@@H](C)CO)C[C@@H](C)[C@@H](CN(C)Cc2ccncc2)O3)cc1	-0.5
Cc1ccccc1S(=O)(=O)N1C[C@@H]2N[C@H](C1)C2c1ccc(-c2ccc(C#N)cc2)cc1 (stereo not given in full)	-6.3&-2.6

Looked up by structure from the entries so far, three records:
molecule	MLL AF4-AF9 inh
COc1cccc(NC(=O)N(C)C[C@H]2Oc3cc(-c4cccc(C(=O)N(C)C)c4)ccc3S(=O)(=O)N([C@H](C)CO)C[C@H]2C)c1	0.1
CCCN(C)C[C@@H]1OCCCC[C@@H](C)Oc2ccc(NS(=O)(=O)c3ccccc3)cc2C(=O)N([C@@H](C)CO)C[C@@H]1C	-0.2
C[C@H](CO)N1C[C@H](C)[C@H](CN(C)S(=O)(=O)c2ccc(-c3ccccc3)cc2)OCc2cn(nn2)CCCC1=O	2.0

An excerpt from above in order of their number in MLL AF4-AF9 inh, descending.
molecule	MLL AF4-AF9 inh
C[C@@H]1CN([C@H](C)CO)S(=O)(=O)c2ccc(C#Cc3ccccn3)cc2O[C@@H]1CN(C)Cc1ccc(F)cc1	1.4
COCC(=O)N1C[C@@H](C)[C@H](OC)CN(C)C(=O)c2cc(NC(=O)C3CCC3)ccc2OC[C@H]1C	-0.2
Cc1noc(C)c1NC(=O)N(C)C[C@H]1Oc2ncc(C#CC3CCCCC3)cc2C(=O)N([C@H](C)CO)C[C@H]1C	-1.0
COC(=O)c1cc2c(c3c4ccccc4n(S(=O)(=O)c4ccc(OC)cc4)c13)C(=O)N(Cc1ccc(N(C)C)cc1)C2	-7.1
